Bioassay records deposited in PubChem BioAssay by National Center for Advancing Translational Sciences (NCATS).
TRPV1 PAM: HTS Assay for Compounds that Act as Potentiators of the Vanilloid Receptor 1; Transient receptor potential cation channel subfamily V member 1 (Homo sapiens), Q8NER1; TRPV1-expressing cells, Fluo-8 calcium influx, capsaicin EC20 potentiation; host cell line not named in the record; control for the full effect not named in the record; potentiation, % at 8.33 µM; 0.02% of 320,000 active; AID 540277, 2011; active means potentiation above 80%; inconclusive means 30% to 80%; inactive means below 30%; note: 0% is about no effect
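TRPV1-expressing cells were cultured overnight at 35.5C and loaded with Fluo-8 calcium dye for 40 to 90 min at room temperature. After a 10 s baseline, compound was added and calcium influx was read kinetically for 3 min (ex 480/em 520 nm).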
Six1-Eya2 blk: qHTS Assay for Inhibitors of the Six1/Eya2 Interaction; Homeobox protein SIX1 (Homo sapiens) + Protein phosphatase EYA2 (Homo sapiens), …; AlphaScreen GST-Six1/His-Eya2 binding, biochemical; hits give low values; control for the full effect not named in the record; activity change, % (no concentration beside the values); 0.56% of 360,000 active; in the data active = activity change below about -65%; inconclusive = about -30% to -65%; inactive = above about -30%; note: % is set by controls: 0 for no effect and ±100 for the full control effect; compound concentration not given in the record
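AlphaScreen with GST-Six1 and His-Eya2 (5X mix: 250 nM and 500 nM), glutathione donor and nickel acceptor beads; buffer 50 mM Tris pH 8.0, 300 mM NaCl, 1 mM TCEP; 1 h at 37 C in the dark.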
TRPML1 inh: qHTS for Inhibitors of the Human Mucolipin Transient Receptor Potential 1 (TRPML1). Mucolipin-1 (Homo sapiens), Q9GZU1. TRPML1-inducible cells, Ca2+ dye fluorescence, FDSS; hits give low values; inhibition of EC80 agonist-evoked calcium signal. activity change, negative = inhibition, % (test concentration not listed). 0.02% of 390,000 active; in the data active means activity change below about -50%; inconclusive means about -30% to -50%; inactive means above about -30%;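 note: stimulus is agonist 54-4 at its EC80 concentration; % is set by controls: 0 for no effect and ±100 for the full control effect; compound concentration not given in the record; the text of the record puts the active cut at -80%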
Target sequence (Q9GZU1 whole entry, looked up): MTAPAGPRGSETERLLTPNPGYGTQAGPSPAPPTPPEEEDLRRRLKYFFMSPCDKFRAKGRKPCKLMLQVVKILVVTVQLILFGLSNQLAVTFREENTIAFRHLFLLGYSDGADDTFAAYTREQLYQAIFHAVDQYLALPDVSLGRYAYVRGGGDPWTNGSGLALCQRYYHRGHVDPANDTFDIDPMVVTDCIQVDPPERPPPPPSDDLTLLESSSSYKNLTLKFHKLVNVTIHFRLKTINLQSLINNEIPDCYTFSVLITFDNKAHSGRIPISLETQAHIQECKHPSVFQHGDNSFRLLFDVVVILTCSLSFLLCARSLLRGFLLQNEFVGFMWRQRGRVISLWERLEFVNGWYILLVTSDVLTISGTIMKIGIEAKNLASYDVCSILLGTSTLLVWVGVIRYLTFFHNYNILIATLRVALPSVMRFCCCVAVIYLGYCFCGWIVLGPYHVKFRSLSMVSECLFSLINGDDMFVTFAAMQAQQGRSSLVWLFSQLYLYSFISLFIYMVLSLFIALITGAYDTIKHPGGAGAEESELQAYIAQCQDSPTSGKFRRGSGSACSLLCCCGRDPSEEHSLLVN
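Tet-induced TRPML1-DL cells loaded with Ca8 no-wash calcium dye were read kinetically on FDSS. Compound addition was followed by EC80 agonist 54-4 (4 uM final); inhibition was read over 110 s.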
CtBP-E1A blk: qHTS Assay for Inhibitors of the CtBP/E1A Interaction | AID 651724, 2012 | 0.49% of 340,000 active | AlphaScreen GST-E1A/His-CtBP binding, 1536-well; hits give low values; control for the full effect not named in the record | activity change, % (no concentration beside the values); in the data active means activity change below about -65%; inconclusive means about -30% to -65%; inactive means above about -30%; note: % is set by controls: 0 for no effect and ±100 for the full control effect; compound concentration not given in the record
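In 5 uL wells, 23 nL compound meets equimolar GST-E1A and His-CtBP (5X stock 125 nM each) for 2 h, 37 °C. Beads (5X, 50 ug/mL) then 1 h, 37 °C, dark.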
D2 PAM: Beta-Arrestin HTS for Positive Allosteric Modulators of the Human D2 Dopamine Receptor: Potentiators. potentiation, % (test concentration not listed). D(2) dopamine receptor (Homo sapiens), P14416. 0.23% of 360,000 active. DiscoveRx D2 beta-arrestin cells, luminescence, 90 min; 100% = 57 uM dopamine signal; active = potentiation of 50% or more; inconclusive = 30% to 50%; inactive = 30% or less;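 note: compound concentration not given in the record; tested on top of an EC20 dose of dopamine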
Target sequence (P14416 whole entry, looked up): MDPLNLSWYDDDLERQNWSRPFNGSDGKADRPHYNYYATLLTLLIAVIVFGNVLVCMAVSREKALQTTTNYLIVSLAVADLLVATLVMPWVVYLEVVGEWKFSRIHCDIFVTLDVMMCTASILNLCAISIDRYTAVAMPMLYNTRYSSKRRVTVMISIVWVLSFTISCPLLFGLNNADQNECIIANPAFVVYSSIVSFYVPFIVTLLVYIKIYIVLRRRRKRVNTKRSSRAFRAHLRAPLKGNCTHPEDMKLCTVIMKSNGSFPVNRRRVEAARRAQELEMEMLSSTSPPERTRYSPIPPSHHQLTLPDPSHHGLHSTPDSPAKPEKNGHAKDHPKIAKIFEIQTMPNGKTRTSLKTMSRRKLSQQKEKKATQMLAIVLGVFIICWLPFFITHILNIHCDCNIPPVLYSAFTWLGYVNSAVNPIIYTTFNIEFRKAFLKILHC
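D2 cells co-treated with compound plus 50 nM dopamine (EC20) for 90 min at 37 deg C to detect potentiation. Beta-arrestin recruitment was read as enzyme-fragment luminescence after 1 h at ambient temperature. Full response was set by 57 uM dopamine.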
TRPML1 agonist: qHTS for Agonists of the Human Mucolipin Transient Receptor Potential 1 (TRPML1); Mucolipin-1 (Homo sapiens), Q9GZU1; TRPML1-expressing cells, Ca2+ dye fluorescence, FDSS; host cell line not named in the record; reference of the full effect not given here; activation, % (test concentration not listed); 0.12% of 410,000 active; AID 624414, 2012; in the data active = activation above about 50%; inconclusive = about 30% to 50%; inactive = below about 30%; note: 0% is about no effect; the text of the record puts the active cut at 80%
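Cells: TRPML1-DL, 1X Tet inducer, ~16 h at 37 degrees C/5% CO2. Dye: ABD Ca8 no-wash + quencher, 45-90 min RT. Read: 10 s baseline, compound add, 110 s agonist phase; 54-4 EC80 (4uM final), 110 s antagonist phase.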
* = called active by the depositor; ? = inconclusive; · = not tested or not shown; & = joins results of further samples.

SMILES	TRPV1 PAM	Six1-Eya2 blk	TRPML1 inh	CtBP-E1A blk	D2 PAM	TRPML1 agonist
CCC(C)NS(=O)(=O)c1ccc(S(=O)(=O)Nc2cc3c(cc2C(C)=O)OCO3)cc1 (configuration not stated)	1	1	-9	-13	-3	2.0
Cc1cccn2c(=O)c3cc(C(=O)NC(C)c4ccccc4)c(=N)n(CCCn4ccnc4)c3nc12 (configuration not stated)	-3	-26	-3	-25	-12	0.6
NS(=O)(=O)c1cccc(NC(=O)COC(=O)CCN2C(=O)c3ccccc3C2=O)c1	4	1	0	6	-2	0.6
COc1ccc(Cn2nnnc2C(c2ccccc2)N2CCN(C3CCCC3)CC2)cc1 (configuration not stated)	1	8	-2	-1	-13	0.7
O=c1[nH]c2cc3c(cc2cc1CN(CCO)S(=O)(=O)c1ccccc1Cl)OCCO3	9	-1	6	1	-5	0.3
Cc1ccccc1CSc1nncn1N	11	-2	8	3	-8	-0.4
O=C(c1ccccc1)N1CCCCCC1	9	1	-5	-5	-14	-0.3
Cc1ccc2ccccc2c1C(O)c1ncc(-c2cccc(C(F)(F)F)c2)[nH]1 (configuration not stated)	·	-11	·	-3	-14	0.2
CC(=O)NC(=S)Nc1ccc(NC(=O)COc2ccc(Cl)cc2Cl)cc1	5	1	20	3	-14	-0.7
O=C(CN(Cc1ccco1)C(=O)c1cccc(Cl)c1)Nc1c(Cl)cc(Cl)cc1Cl	5	-6	41	1	-19	2.2
CC(=O)NC12CC3CC(C1)CC(C(=O)N(C)CC(=O)Nc1ccc(F)c(F)c1F)(C3)C2	4	11	-9	·	-10	-0.2
COc1cccc(N2CCN(C(=O)NC3CCCCC3)CC2)c1	?	4	2	0	-3	-0.1
O=C(O)COc1ccccc1/C=N/NC(=O)c1ccc(F)cc1	-15	-1	-13	0	-6	0.1
O=C(O)c1sccc1S(=O)(=O)N1CCCCC1	·	-1	0	1	-5	-0.5
COc1ccc(NC(=O)CN(C)C(=O)c2cn(-c3ccccc3)nc2-c2cccnc2)cc1	-4	-4	7	0	-20	0.0
CC(C)n1nc(C(=O)NCCCN2CCCC2=O)c2ccccc2c1=O	6	0	2	0	-8	-0.5
CC1CCN(CCNC(=O)CCS(=O)(=O)c2ccc(Br)cc2)CC1	-1	9	1	3	-17	0.4
CCc1ccc(-c2csc(NC(=O)C3CCCO3)c2C(=O)OC(C)C)cc1 (configuration not stated)	-24	7	12	4	-12	2.4
CCNC(=O)CC1C(=O)N(c2ccc(F)cc2)C(=O)N1CCc1sccc1C (configuration not stated)	-5	3	6	4	-4	-0.4
O=C(O)C(O)(c1ccccc1)C(O)c1ccccc1 (configuration not stated)	·	-12	24	9	-3	-0.2

Rewritten field by field: part of the list above.
> COc1ccc(NC(=O)CN(C)C(=O)c2cn(-c3ccccc3)nc2-c2cccnc2)cc1
  TRPV1 PAM = -4; Six1-Eya2 blk = -4; TRPML1 inh = 7; CtBP-E1A blk = 0; D2 PAM = -20; TRPML1 agonist = 0.0
> COc1cccc(N2CCN(C(=O)NC3CCCCC3)CC2)c1
  TRPV1 PAM = ?; Six1-Eya2 blk = 4; TRPML1 inh = 2; CtBP-E1A blk = 0; D2 PAM = -3; TRPML1 agonist = -0.1

(next part)
SMILES	TRPV1 PAM	Six1-Eya2 blk	TRPML1 inh	CtBP-E1A blk	D2 PAM	TRPML1 agonist
CN(C)/N=C/C=C1\CC/C(=C\c2ccc(Br)cc2)C1=O	9	-1	-12	0	8	0.1
Cc1ccc(-n2nc3c(=O)n(CCCC(=O)NCCc4ccccc4)nc(C)c3c2C)cc1	12	2	-12&-5	-2	-8	-1.1&2.0
O=C(NCCCCCc1nc2ccccc2[nH]1)c1ccccc1Cl	30	1	8	-13	-19	2.2
CC(Oc1ccc(Cl)cc1Cl)C(=O)N(C)c1ccccc1 (configuration not stated)	-3	-2	34	·	-3	2.2
O=C(c1ccco1)N1CCN(CC2CC3C=CC2C3)CC1 (configuration not stated)	-9	0	-2	4	?	-0.2
Cc1nc(C)c(C(=O)OCC(=O)N2CCN(c3ccccc3)CC2)s1	-15	-1	14	3	-4	-0.9
CCOc1ccc(N=Cc2ccc([N+](=O)[O-])cc2)c(O)c1	·	-19	17	-9	-5	1.9
Cc1ccc(O)c(Cn2nnc3ccccc32)c1	-22	3	5	0	-5	-0.4
OCC1(CCOc2ccccc2)CCN(Cc2cn[nH]c2-c2ccc(F)cc2)CC1	0	1	-5	-12	-14	1.1
CC(=O)Nc1ccc(S(=O)(=O)NCCC(=O)OCC(=O)N2CCN(C(=O)c3ccco3)CC2)cc1	4	-3	-11	-6	-1	-0.3
C/C(NCCc1ccc(O)cc1)=C1/CCOC1=O	·	2	10	0	5	2.6
Cc1c(NC(=O)c2ccc3c(c2)OCO3)cccc1-c1nc2ccccc2s1	3	-4	6	11	-22	0.3
COCc1c(Br)c(C)nc(OCC(=O)O)c1C#N	-12	2	-11	-2	-17	0.0
CCn1nnnc1SCC(=O)N1CCc2ccccc21	·	-3	-14	-10	-11	0.5
CCN(CCNC(=O)CC1Oc2ccccc2NC1=O)c1ccccc1 (configuration not stated)	-4	-7	47	-2	-3	-0.1
Cc1ccc(N2C(=O)S/C(=C/c3cn(C)c4ccccc34)C2=O)cc1	4	0	10	7	-3	0.0
Cc1ccc2[nH]c3c(c2c1)CN(C(=O)CN1c2ccc(F)cc2CCC1C)CC3 (configuration not stated)	-17	-20	8	-17	17	2.0
Cc1nonc1NC(=O)CSc1nnc(-c2ccoc2C)n1CC(C)C	-4	0	37	4	23	0.0
Cc1ccc(S(=O)(=O)N2CCOCC2)cc1NC(=O)COC(=O)c1ccc(OCc2c(C)noc2C)cc1	24	0	-4	-13	-5	0.1
Cc1ccc(-c2n[nH]c(=O)c3ccccc23)cc1S(=O)(=O)NCC1CCCO1 (configuration not stated)	0	-4	59	-2	-8	0.5
O=C(Cc1ccc(S(=O)(=O)N2CCOCC2)s1)NCCC(c1ccccc1)c1ccccc1	8	1	0	0	3	12
CN(C)CCNc1nc2sc3c(c2c(=O)n1-c1ccccc1)CCCCC3	0	-5	13	-7	-19	0.0
COc1nnc(-c2ccc(N3CCOCC3)c(NC(=O)C3CCCCC3)c2)c2ccccc12	14	6	6	-2	-15	-0.7
CCOC(=O)C1(Cc2ccccc2Cl)CCN(C(=O)c2cnccn2)CC1	-12	0	-10	1	-1	-0.5
CCc1nnc2n1N=C(c1ccc(Cl)cc1)CS2	-14	-6	·	-1	-11	·
Cc1ccccc1C(=O)NNC(=O)C1CCN(c2ncccn2)CC1	11	-6	40	7	-2	-0.7
Cc1cc2c(c(/C=C/C(=O)c3ccccc3)c1)OC1(C=C2)Oc2ccccc2C(=O)N1C (configuration not stated)	1	0	-1	0	-7	1.4
Cc1ccc(-n2c(CCc3ccccc3)n[nH]c2=S)cc1C	1	-14	9	-1	-2	0.1
O=C(CSc1nnc(-c2ccccn2)n1Cc1ccccc1)N1CCOCC1	-6	8	-6	·	-12	0.2
CSc1nsc(SC)c1NC(=O)N1CCCC1	0	6	-6	1	-12	0.7

Some of these compounds in order of their number in CtBP-E1A blk, ascending:
Molecule	CtBP-E1A blk
CN(C)CCNc1nc2sc3c(c2c(=O)n1-c1ccccc1)CCCCC3	-7
Cc1ccc(-n2c(CCc3ccccc3)n[nH]c2=S)cc1C	-1
O=C(Cc1ccc(S(=O)(=O)N2CCOCC2)s1)NCCC(c1ccccc1)c1ccccc1	0
CSc1nsc(SC)c1NC(=O)N1CCCC1	1
Cc1ccccc1C(=O)NNC(=O)C1CCN(c2ncccn2)CC1	7

More compounds
SMILES	TRPV1 PAM	Six1-Eya2 blk	TRPML1 inh	CtBP-E1A blk	D2 PAM	TRPML1 agonist
Cc1ccc(NC(=O)CSCC(N)=O)cc1C	0	3	-20	2	-8	0.9
O=C(CN1C(=O)COc2ccc(S(=O)(=O)N3CCCCC3)cc21)NCc1ccc(Cl)cc1	-1	24	-15&-22	3	-4	1.1&2.6
Cc1cccc(OC(=O)c2sc3ncn(C)c(=O)c3c2C)c1	9	2	22	10	-8	0.7
CS(=O)(=O)N(Cc1ccccc1Cl)c1ccc(C(=O)NCc2ccccn2)cc1	3	-12	-5	-14	-16	0.2
NC(=O)CSc1nnc(NC(=O)c2cccc(S(=O)(=O)N3CCCCC3)c2)s1	0	-2	-8	6	-20	0.7
C[N+]1(C)CC[C@H](OC(=O)[C@@](O)(c2ccccc2)C2CCCC2)C1	1	-1	4	7	3	-0.4
CCOC(=O)c1ccc(S(=O)(=O)NNc2ccc(C(F)(F)F)cn2)cc1	·	-2	-8	-17	-7	3.4
Cc1cc(C)nc(/N=C(\N)Nc2ccc(OCc3ccccc3)cc2)n1	-4	-15	5	-8	-5	81*
CCCNC(=O)C(Cc1ccc(OC)cc1)NC(=O)c1ccc(Cl)cc1 (configuration not stated)	-10	0	23	8	-9	0.1
COc1ccc(N2CCOCC2)c(NC(=O)c2ccc3c(c2)OCO3)c1	-11	-1	8	2	-8	-0.2
Cc1ccc(N2CC(C(=O)N3CCC(C(=O)NCCCOC(C)C)CC3)CC2=O)cc1 (configuration not stated)	21	9	27	-5	-10	-0.6
Cc1cccc(CN2CCCC(C(=O)Nc3ccccc3Oc3cccnc3)C2)c1 (configuration not stated)	-16	0	1	-6	-23	-0.6
CCCc1cc(=O)[nH]c(SC(C)C(=O)N2c3ccccc3CC2C)n1 (configuration not stated)	12	10	2	0	11	2.5
CN(C)CCN(CC1CCCN(Cc2ccccc2F)C1)C(=O)c1ccc(Cl)cc1 (configuration not stated)	?	-6	-15	-1	-10	0.2
COC(=O)c1ccc(OCCN2C3=NCCN3c3ccccc32)cc1	-7	5	-9	4	-7	0.7
CC(=O)N(C)c1ccc(N=Nc2ccc3ncccc3c2)cc1	·	-15	-2	-11	-10	0.4
S=c1nc(C2CCCCC2)[nH]c2ccccc12	-3	11	-25	-23	-10	1.5
O=C(CN(C(=O)CCC(=O)Nc1ccccn1)c1ccc(F)cc1)NCc1ccc(F)cc1	5	0	-11	24	-3	-0.3
CC1CCCCN1C(=O)CSc1nnc(-c2cccnc2)n1C1CCCCC1 (configuration not stated)	-11	2	18	0	-1	1.9
Cc1c(C(=O)OCC(=O)N2CC(C)CC(C)C2)oc2ccccc12 (configuration not stated)	-25	-2	8	14	-3	1.1
N#Cc1c(NC(=O)c2cc([N+](=O)[O-])ccc2N2CCOCC2)sc2c1CCCC2	-10	-13	35	-15	-3	-0.3
CC1(c2nnnn2-c2ccc3c(c2)OCCO3)CCC(=O)N1CC(F)(F)F (configuration not stated)	·	0	·	-1	·	-0.8
COc1ccc(-c2oc3ccccc3c2C#Cc2cncn2C)cc1	-18	-10	-14	-11	-30	0.6
COc1ccccc1-c1c(C)nn2c(N3CCN(Cc4ccccc4)CC3)cc(C)nc12	-2	7	0	-3	-10	0.0
CN(C(=S)Nc1ccccc1)c1ccccc1	-1	6	26	9	-12	0.5
COc1ccccc1C(=O)Nc1nc(C)cc(C)n1	·	-3	13	1	-9	-0.3
